T cruzi inh: T. cruzi replication inhibition | T. cruzi beta-gal in NIH3T3, luminescence, 90 h | AID 1885 | inhibition, % (no concentration beside the values) | actives 1.4% (n = 300,000);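 active = mean inhibition across valid replicates above about 55%, limit read from the data; inconclusive = mean below that limit but half or more replicates reach it; inactive = mean below it, under half of replicates reach it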;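 note: signal also drops with host cell toxicity which is not excluded here; 0% = plate median of DMSO wells and 100% = zero luminescence signal; higher percent means less beta-gal luminescence so fewer parasites; stock transfer was 50 nL into about 50 µL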
LANA-H2B inh: blocks KSHV LANA binding to histone H2A/H2B; Q9QR71; cell-free LANA-H2A/H2B peptide, fluorescence polarization; AID 2629; actives 0.6% (n = 320,000); inhibition, % (test concentration not listed); in the data active = inhibition mostly above about 10%, no sharp cut-off; inactive = mostly below about 6.7%;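 note: stock transfer was 7.5 nL into about 10 µL; 0% = median of vehicle wells and 100% = median of positive control wells; one replicate is shown; the record names a cut of 25% in any replicate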
Bfl-1 A1 inh: inhibitors of the anti-apoptotic protein A1, read as caspase activation; MEF A1-2A-BIM cells, Caspase-Glo 3/7 luminescence, 3 h; percent of clofoctol response, vehicle zero; caspase activation, % (test concentration not listed); actives 0.066% (n = 330,000); AID 2462;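 active = over half of replicate activation scores above 10%, or exactly half above 10 with the replicate mean above 10; inconclusive = replicate mean below 10 yet half the replicates above 10; inactive = over half of replicates below 10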;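 note: wells of about 30 µL received 50 nL stock; many hits fall short of the cut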
RanGTP-Impb inh: inhibitors of RanGTP-importin-beta interaction, primary screen, biochemical, FRET, CFP-Ran, YFP-importin-beta, homogeneous; actives 1.1% (n = 300,000); inhibition, % (no concentration beside the values); cell-free CFP-Ran/YFP-importin-beta FRET ratio;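 active = most replicates above 15%; inconclusive = exactly half above 15%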;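 note: 0% = DMSO wells and 100% = Ran loaded with GDP instead of GTP; wells of about 40 µL received 100 nL stock; the first replicate is given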
UCH37 inh: human UCH37 deubiquitinating enzyme inhibition. purified proteasome/UCH37, Ub-AMC cleavage fluorescence. inhibition, % (concentration not given with the values). actives 0.33% (n = 330,000);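 active = mean of two replicates above 20%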;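 note: 0% = compound-free wells with enzyme and 100% = wells lacking proteasome; stock transfer was 100 nL into about 20 µL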
Target sequence (Q9Y5K5 whole entry, looked up): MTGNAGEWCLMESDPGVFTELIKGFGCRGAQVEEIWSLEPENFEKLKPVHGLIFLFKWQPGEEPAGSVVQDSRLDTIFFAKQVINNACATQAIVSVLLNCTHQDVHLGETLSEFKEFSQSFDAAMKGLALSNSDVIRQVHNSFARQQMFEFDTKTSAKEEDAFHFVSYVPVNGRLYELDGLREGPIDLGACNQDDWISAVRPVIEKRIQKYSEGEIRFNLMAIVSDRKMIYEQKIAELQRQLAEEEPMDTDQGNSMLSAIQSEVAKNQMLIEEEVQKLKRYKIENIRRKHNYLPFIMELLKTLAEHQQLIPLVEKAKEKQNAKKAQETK
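Assay system: Proteasome-bound UCH37. Buffer or medium: pH 7.4 Tris-HCl (50 mM) with ovalbumin, ATP-MgCl2, DTT. Incubation: 30 min preincubation with enzyme, 25 min cleavage at room temperature. Measured by: fluorescence, ex 355 nm, em 460 nm. Read-out basis: percent inhibition. Control set: wells without proteasome as full block, compound-free enzyme plus substrate as uninhibited.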
Beta apoptosis: blocks beta cell apoptosis. INS-1E cytokine-induced death, ATP luminescence, 48 h; percent of positive-control rescue, neutral wells zero. protection from apoptosis, % (no concentration beside the values). actives 0.8% (n = 300,000). AID 435005;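 active = all replicates at 75% or more, or half of them and the mean; inconclusive = half reach 75% but not the mean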;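 note: 0% = cytokine-treated negative control wells and 100% = positive control rescue; higher means more ATP so stronger rescue from cytokine killing; wells of about 40 µL received 100 nL stock; the first replicate is given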
Calb FLC: affects C. albicans growth with fluconazole; C. albicans CaCi-2 (fluconazole-resistant clinical isolate) + fluconazole, Alamar Blue growth, 48 h; growth inhibition, % (concentration not given with the values); actives 0.57% (n = 300,000);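 active = most replicates above 75%; inconclusive = exactly half above 75%; inactive = most below 75%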;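 note: all wells also contain fluconazole at 8 µg/ml as a sub-toxic cotreatment; 0% = median of DMSO wells and 100% = median of geldanamycin control wells; wells of about 8 µL received 7.5 nL stock; the first replicate is given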
B2AR ag: agonists of human beta-2 adrenergic receptor inducing internalization. P07550. Am2.2-beta2AR cells, FAP receptor internalization, flow cytometry; reference of the scale not given here. response, % (no concentration beside the values). actives 0.43% (n = 340,000). AID 504454;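 active = response above a set limit, near 3 SD of response in nonfluorescent compounds, cut at about 42% in these data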;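 note: stock transfer was 100 nL into about 11 µL; a reference agonist was the positive control; negative values mostly stem from fluorescent compounds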
Target sequence (P07550 whole entry, looked up): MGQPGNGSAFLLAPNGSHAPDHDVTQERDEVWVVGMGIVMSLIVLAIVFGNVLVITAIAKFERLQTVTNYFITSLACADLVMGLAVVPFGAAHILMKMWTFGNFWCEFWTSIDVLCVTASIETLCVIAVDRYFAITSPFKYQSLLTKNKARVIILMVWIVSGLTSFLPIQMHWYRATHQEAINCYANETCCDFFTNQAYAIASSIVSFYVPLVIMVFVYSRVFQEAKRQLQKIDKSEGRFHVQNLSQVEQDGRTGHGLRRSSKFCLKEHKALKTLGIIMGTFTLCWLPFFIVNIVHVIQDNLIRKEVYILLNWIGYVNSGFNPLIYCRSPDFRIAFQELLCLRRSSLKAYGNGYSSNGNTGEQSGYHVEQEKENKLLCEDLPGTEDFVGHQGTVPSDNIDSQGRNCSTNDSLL
* marks the source's active call; other numbers are inactive results; u = inconclusive; x = no result given; & = joins results of further samples.

SMILES	T cruzi inh	LANA-H2B inh	Bfl-1 A1 inh	RanGTP-Impb inh	UCH37 inh	Beta apoptosis	Calb FLC	B2AR ag
Cc1csc(NC(=O)C2CCCO2)n1 (stereo unspecified)	-2.5	-1.3	0.4	-0.1	4.8	-0.2	-4.6	-2.0
Cc1ccc(S(=O)(=O)N(CC(O)CN2CCOCC2)c2cc(Cl)ccc2Cl)cc1 (stereo unspecified)	9.9	0.2	-0.1	0.9	-4.7	-3.9	3.6	4.1
OCC[C@H]1C[C@H](O)[C@@H](O)[C@]2(Cc3ccccc3CCO2)O1	x	-0.8	-0.5	x	1.9	-9.3	x	1.5
Cc1ccc(-c2ccc(/C=C/C(=O)c3ccccc3)o2)cc1	24.9	0.8	-0.1	-74.7	-4.6	-6.2	-8.4	13.0
CCOC(=O)c1nc(Nc2ccc(C(C)=O)cc2)c2ccccc2n1	-6.3	2.2	0.9	-3.5	-12.0	21.0	0.6	-3.5
C/C=C/C(=O)Nc1cccc(C2=NOC3(C2)C[C@@H](C(N)=O)N(C(=O)c2cc([N+](=O)[O-])cc([N+](=O)[O-])c2)C3)c1 (stereo partly specified)	-6.2	-6.0	-0.4	-1.1	0.9	-1.0	10.1	-3.2
C=CCn1c(SCc2nc3ccccc3nc2C)nnc1-c1ccoc1C	6.6	3.7	u	-0.2	3.2	-1.7	4.2	20.2
O=C(COc1ccc(Cl)cc1Cl)NC(=S)Nc1ccccc1C(=O)O	-23.1	-4.0	0.5	0.7	x	-9.5	-1.3	x
O=C(CSc1nnc(-c2ccccc2)n1-c1ccccc1)c1ccc[nH]1	1.6	0.6	-0.2	-3.7	6.3	-3.0	-1.2	-17.1
COc1ccc(/C=N/NC(=O)c2ccc3ccccc3c2)cc1OS(=O)(=O)c1ccc(NC(C)=O)cc1	8.4	10.0	1.1	0.5	x	x	1.0	22.8
O=C(Oc1ccc2c(=O)c(Cl)coc2c1)c1cccnc1	-17.4	-1.9	0.1	-0.9	-45.2	x	-2.5	6.6
O=C(/C=C/c1cccc([N+](=O)[O-])c1)N1CCN(S(=O)(=O)c2cccs2)CC1	-4.2	1.7	-0.8	-2.7	2.0	x	12.6	2.4
O=C(CS(=O)(=O)Cc1ccccc1)Nc1ccc(Br)cc1F	-3.5	7.0	0.0	-0.5	1.1	-1.8	6.3	-8.4
O=C(CCc1nnc(C2CCCCC2)o1)N1CCN(C2CCCCC2)CC1	-3.1	-10.2	0.5	4.0	4.2	x	3.0	-5.7
C=CC[C@H](CC(=O)N(CCO)Cc1ccccc1)C(=O)N[C@@H](COC(=O)[C@@H](CC=C)Cc1ccc(F)cc1)Cc1ccccc1	x	2.1	u	x	4.1	-0.2	x	22.9
Nc1ccccc1C#Cc1ccccc1	-23.9	-2.8	-5.8	-1.8	-5.7	-1.7	0.4	3.2
COCCNC(=O)CCC1CCN(C/C=C/c2ccccc2OC)CC1	-6.8	0.0	0.3	4.5	-0.4	-5.0	-16.3	0.3
Cc1cc(C(=O)O)ccc1-c1ccc(/C=C2\NC(=O)N(Cc3ccc(F)cc3)C2=O)o1	1.4	-3.8	0.7	64.9*	-36.6	11.7	-2.3	8.0
CC(C)(C)c1ccc(OCCC(=O)OCC(=O)N2c3ccccc3NC(=O)C2(C)C)cc1	6.6	5.2	-0.8	-3.9	1.6	-7.3	2.1	-1.7
CC(C)(C)c1cc(NC(=O)C2CCCO2)no1 (stereo unspecified)	0.5	3.3	-0.3	3.8	-1.0	-0.7	-3.9	-8.6
COc1cccc(NC(=O)C2CCN(Cc3cnn(-c4ccccc4)c3-n3cccc3)CC2)c1	8.9	0.3	-1.1	0.8	1.2	x	-14.8	-1.6
Cc1ccc(S(=O)(=O)N/N=c2\oc3ccccc3cc2C(=O)Nc2cccc(C)c2)cc1	-6.8	1.2	2.6	-9.0	x	-1.2	-4.9	x
Fc1ccc(-c2n[nH]c(=S)n2-c2ccc3c(c2)OCCO3)cc1	-8.7	0.7	1.3	2.6	4.5	-4.9	29.3	1.1
O=C1C2C3C=CC(C3)C2C(=O)N1Nc1c(Cl)cc(Cl)cc1Cl (stereo unspecified)	-7.1	-7.0	0.6	-1.8	2.6	-3.1	-20.9	-3.9
CCOP(=O)(c1ccccc1)C(O)c1ccc(F)cc1 (stereo unspecified)	-4.9	-1.4	0.2	0.3	7.0	-1.0	0.2	8.4
COc1ccc(Cl)cc1N1C(=O)[C@@H]2C(c3cccc(OC)c3OC)=NO[C@@H]2C1=O	-7.2	-1.8	0.3	4.2	7.0	-2.5	-16.8	2.5
C=C(C)c1cccc(C(C)(C)NC(=O)NC(c2ccccc2)c2ccc(OC)cc2)c1 (stereo unspecified)	0.8	-3.1	-0.5	3.6	4.8	2.2	13.0	-0.8
O=C(CSc1nnc(-c2n[nH]c3ccccc23)n1-c1ccccc1)Nc1cccc(Cl)c1	2.6	-1.1	-0.5	-0.5	0.6	4.1	-28.0	-1.6
COc1ccc(Br)cc1/C=C(\C(=O)O)c1ccc(S(=O)(=O)N2CCCCC2)s1	x	3.0	0.2	x	-18.9	-11.3	x	7.3
O=C(NCc1ccco1)c1ccc2c(c1)S(=O)(=O)c1ccccc1C2=O	-2.8	-1.9	0.2	0.5	-0.8	5.8	0.0	1.2
CC(=O)C1=NOC2C(=O)N(c3ccccc3)C(=O)C12 (stereo unspecified)	-5.5	1.7	0.1	6.6	4.0	-0.8	-0.8	0.0
COC(=O)c1ccc(N/C(=N/S(=O)(=O)c2ccccc2)c2ccccc2)cc1	-1.6	-0.8	-0.4	0.8	x	2.2	-14.9	-5.8
CCOc1ccc(S(=O)(=O)N(C)c2ccc(OCC(=O)N3CCOCC3)cc2)cc1	-4.6	3.0	-0.3	-2.9	1.4	-1.5	-3.8	3.0
CSc1ccccc1OCc1cc(C(=O)N2CCN(C3CCCC3)C(=O)C2)no1	6.7	2.2	-0.7	0.2	3.4	0.0	-4.0	-1.7
CC1CCN(C(=O)Cn2c3ccccc3c3nc4n(c(=O)c32)CCCS4)CC1	9.4	-3.0	0.9	-3.6	-19.0	3.0	3.0	-6.8
O=C(CCl)NNc1cccc(Cl)n1	x	7.0	-0.1	2.1	1.8	-1.5	-4.5	-0.9
COc1ccc(-c2csc(NC(=O)c3c(C)noc3C)n2)cc1	x	1.5	0.1	x	3.1	-2.5	x	4.2
COC(=O)c1ccc(COC(=O)CNS(=O)(=O)c2ccccc2)cc1	-16.5	2.6	2.5	u	0.7	0.0	-2.8	0.4
CCCn1nc(C(=O)Nc2ccc3c(c2)OCO3)c2ccccc2c1=O	x	x	-1.3	x	1.1	6.2	x	11.8
Cc1cc(C)nc(SCc2ccc(C(=O)N/N=C/c3ccco3)cc2)n1	1.4	-5.0	0.3	-4.5	x	-4.1	8.5	-1.6
CS(=O)(=O)Nc1ccccc1C(=O)N1CCCC1	-10.0	0.9	0.7	3.5	1.6	x	-1.5	0.3
O=C(COC(=O)c1cc(=O)[nH]c2ccccc12)Nc1nccs1	-2.4	2.5	1.0	1.9	-9.7	-2.1	2.8	-4.5
CC1CCN(CCCn2c(=S)[nH]c3c(sc4ccccc43)c2=O)CC1	16.6	-3.9	-1.1	1.1	3.9	1.3	u	-0.6
CS(=O)(=O)c1ccc2nc(NC(=O)C3CCCO3)sc2c1 (stereo unspecified)	-7.3	0.5	0.6	-0.4	3.3	-3.5	19.4	-1.9
O=C(Nc1cccc(Cl)c1)O/N=C\c1ccncc1	-2.6	-2.2	0.0	0.9	x	-6.9	-6.6	3.0
CCCc1c(C)c2c(C)[nH]nc2oc1=O	-3.1	0.4	0.6	-2.3	0.1	-3.7	-0.7	12.4
Cc1ccc(C)c(N2CCN(C(=O)C3CCCN(S(=O)(=O)c4c(C)noc4C)C3)CC2)c1 (stereo unspecified)	x	1.3	-0.3	x	5.3	9.4	x	2.7
Cc1noc(C)c1COc1ccccc1C(=O)N(C)CC(=O)Nc1cccc(F)c1	-7.0	0.0	-0.6	-2.4	3.1	-1.9	3.2	-1.4
COc1ccc(S(=O)(=O)N2CCN(c3ncnc4c(-c5ccccc5)nsc34)CC2)cc1	x	6.4	0.0	x	-29.3	2.2	x	0.5
c1ccc(-n2nnc3ccccc32)nc1	3.3	1.9	-1.1	-1.2	0.0	-8.0	x	-3.9
NC(=O)c1ccc(NC(=O)COC(=O)CCSc2ccccc2)cc1	-8.8	8.7	-0.4	-3.3	3.7	0.9	0.1	-2.0
Cc1ccc(C(C)C)c(OCc2n[nH]c(=S)o2)c1	-2.0	1.3	-0.4	1.5	-1.0	-2.6	39.3	-1.4
CN1CCN(Cc2nc3c(c(=O)n(C)c(=O)n3C)n2CCCc2ccccc2)CC1	5.1	0.7	-0.2	-2.8	4.1	-4.3	-17.5	-7.6
CCc1nc(SCC(=O)Nc2ccc(C(=O)O)cc2)n[nH]1	-3.3	8.2	0.7	3.0	2.9	2.0	-4.7	-6.5
COc1ccccc1OCC(=O)O	-8.2&-4.2	-1.3&-0.8	0.6&0.1	u	1.6&0.4	-6.1&-1.4	-7.6&-5.6	0.8&3.1
c1ccc(-c2nc3cnccn3c2Nc2ccc3c(c2)OCCO3)cc1	-16.7	-7.2	-0.6	u	-28.2	1.2	-10.3	-2.1
O=C1C2CC=C(Cl)CC2C(=O)N1CCN1CCOCC1 (stereo unspecified)	-3.5	0.0	-0.7	0.4	6.9	-4.4	2.1	2.6
Cc1cc(=O)[nH]c(SCCCOc2ccc(F)cc2)n1	-6.3	x	x	0.5	4.0	x	-17.4	-2.2
NC(=O)Cn1c(=O)n(Cc2ccccc2)c(=O)c2cccnc21	8.5	3.3	-0.4	0.5	-29.0	-7.3	2.6	-8.7
C[C@H](NC(=O)c1nc[nH]c1C(=O)NC(c1ccccc1)c1ccccc1)C(=O)OC(C)(C)C	12.0	2.7	1.6	1.3	0.9	-9.5	15.7	2.6
Remaining list, next part:
SMILES	T cruzi inh	LANA-H2B inh	Bfl-1 A1 inh	RanGTP-Impb inh	UCH37 inh	Beta apoptosis	Calb FLC	B2AR ag
COc1ccc(NC(=O)CSc2nnc(-c3ccc(C)cc3)n2N)cc1	-3.1	-4.7	-0.6	3.4	1.4	2.5	6.5	-1.4
N#C/C(=C\C=C\c1ccccc1)C(=O)Nc1ccccc1	8.1	1.2	0.9	-1.0	1.6	11.1	22.0	15.9
CC(=O)N1CCc2cc(Br)cc(S(=O)(=O)N3CCCCCC3)c21	16.6	2.0	-0.1	9.7	0.0	-8.5	0.0	1.3
CC(C)c1nc2c(s1)CCc1onc(-c3ccc(Cl)cc3)c1-2	-6.4	6.7	0.7	5.2	24.1*	-7.9	6.5	-0.6
Brc1ccc2oc3c(N4CCOCC4)ncnc3c2c1	-18.7	x	x	1.5	1.5	x	3.3	-7.7
O=C1CC(c2cccc(Oc3ccccc3)c2)NC(=O)N1 (stereo unspecified)	-11.4	2.8	-0.5	1.7	5.2	-2.9	-19.6	-17.1

From PubChem
